Screening data as filed in PubChem.
Sa growth 42C: S. aureus growth inhibition; S. aureus RN4220 growth, OD600, 20 h, 42 °C; stronger effect = lower value; relative growth, % (no concentration beside the values); actives 0.53% (n = 170,000); AID 720641;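 active = growth at 42 °C up to 50% and 20 or more points under that at 30 °C, or under 10% at both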;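 note: 300 nL library stock went into each well; scaled to the means of positive and negative controls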
HCMV UL50-53 inh: cytomegalovirus nuclear egress complex inhibition. inhibition, % (test concentration not listed). actives 0.15% (n = 190,000). HTRF UL50-UL53 interaction, normalized percent inhibition;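 active = both replicates at 50% or more, plus weaker picks with an unusually low signal ratio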;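 note: stock transfer was 100 nL into about 20 µL; 0% = negative control wells and 100% = wells with untagged competitor protein; inactives centre near -12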
GIV Gai3 FP: GIV-Galpha-i interaction inhibition; actives 0.42% (n = 210,000); Galpha-i3/FITC-GIV peptide fluorescence polarization, 90 min; stronger effect = lower value; scaled: aluminum fluoride 0%, vehicle 100%; AID 1224905; percent of control (FP), % (test concentration not listed);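 active = replicate mean at 85% of control or lower, very high polarization wells dropped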;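 note: wells of about 15 µL received 100 nL stock; the first replicate is given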
Target sequence (P08753 whole entry, looked up): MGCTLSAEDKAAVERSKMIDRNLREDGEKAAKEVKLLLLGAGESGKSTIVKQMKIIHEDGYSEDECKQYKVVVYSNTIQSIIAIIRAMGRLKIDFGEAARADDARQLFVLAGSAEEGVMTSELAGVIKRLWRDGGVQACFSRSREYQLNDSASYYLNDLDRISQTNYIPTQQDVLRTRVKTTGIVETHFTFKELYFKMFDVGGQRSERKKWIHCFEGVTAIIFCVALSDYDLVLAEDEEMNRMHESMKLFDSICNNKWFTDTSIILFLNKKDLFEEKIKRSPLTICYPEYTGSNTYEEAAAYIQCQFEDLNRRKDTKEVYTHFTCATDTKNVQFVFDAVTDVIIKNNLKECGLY
Sa growth 42C second temp: further read-out of Sa growth 42C, marked with its call; relative growth, %; measured here: growth at 30 °C;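 optical density after 20 h as mean of two plates; 100% = untreated growth and lower means inhibition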
Numbers without * were called inactive; x = no result given; & = joins results of further samples.

structure	Sa growth 42C	Sa growth 42C second temp	HCMV UL50-53 inh	GIV Gai3 FP
O=C(NC1CCCC1)C(c1cccnc1)N(CCc1ccccc1)C(=O)c1ccco1 (stereo unspecified)	109	80	-12	101
Cc1csc(NC(=O)C(CC(C)C)NS(=O)(=O)c2ccc3nc(C)sc3c2)n1 (stereo unspecified)	96	78	-5	103
O=C(OCC(=O)N1CCc2ccccc21)c1cccc(S(=O)(=O)N2CCCCC2)c1	101	90	0	x
CN(CCCNC(=O)COCc1cc(-c2ccc3c(c2)OCO3)on1)C1CCCCC1	x	x	-2	99
O=C(NCc1ccccc1)C1Cc2ccccc2CN1S(=O)(=O)c1ccc(F)cc1 (stereo unspecified)	100	76	x	98
Cc1ccc(C)c(CN2CCCN(Cc3c(F)cccc3Cl)S2(=O)=O)c1	x	x	-1	101
CN(C)S(=O)(=O)c1ccc(N2CCOCC2)c(C(=O)NCCC2=CCCCC2)c1	106	91	-22	x
COCCOC(=O)C1=C(C)NC2=C(C(=O)CC(c3ccc(Cl)cc3)C2)C1c1ccc(O)c(OC)c1 (stereo unspecified)	x	x	-20	101
C=CCn1c(SCc2cc3c(cc2Cl)OCO3)nnc1-c1cccnc1	94	89	2	102
CN(C)S(=O)(=O)c1ccc(=O)n(CC(=O)NCc2ccc(-c3ccc(Cl)cc3)o2)c1	112	90	-8	x
CCN1C(=O)c2ccc(C(=O)Nc3c(C)cc(C)cc3C)cc2C1=O	111	81	-4	102
CC(=O)c1sc2c(c1C)c(=O)n(-c1ccc(Cl)cc1)c(=O)n2Cc1cc(=O)n2cc(Cl)ccc2n1	101	91	-6	99
CN(C)S(=O)(=O)c1cccc(CSc2ncccn2)c1	77	95	-19	x
CCOc1ccc(NC(=O)CCS(=O)(=O)c2ccc(Br)cc2)cc1	98	93	x	108
COc1cc(N)ccc1NC(=O)c1ccco1	113	74	-6	x
C=CCNC(=S)N1CCC(C(=O)c2ccc(C)cc2)CC1	89	98	16	101
CCCCNC(=S)Nc1ccc2nc3n(c(=O)c2c1)CCCCC3	91	92	4	100
CCn1c2c(n[n+]1[O-])C(=O)c1ccccc1C2=O	26	15	-18	x
CCNC(=S)N(CCc1c(C)[nH]c2ccccc12)Cc1ccccn1	83	72	x	101
Cc1cc2nc(-c3ccc(NC(=O)c4cc5ccccc5o4)cc3)oc2cc1C	95	97	-18	106
CC1CCN(S(=O)(=O)c2ccc3c(c2)CCC(=O)N3CC(=O)N2CCOCC2)CC1	x	x	-16	105
Cc1ccc(S(=O)(=O)N(CC(O)Cn2c3ccccc3c3ccccc32)c2cccc(C(=O)N(C)C)c2)cc1 (stereo unspecified)	111	81	-23	105
CC1CCCC(NC(=O)COC(=O)c2ccc(C#N)cc2)C1C (stereo unspecified)	83	93	-5	x
O=C(Nc1ccccn1)c1cccc(C(=O)Nc2ccccn2)c1	109	94	-8	x
CC(=O)Nc1ccc2c(c1)nc(CN1CCN(C)CC1)n2C(C)C	x	x	-15	102
COc1ccc(CNC(=O)C2CCN(C3=NS(=O)(=O)C(c4ccc(OC)cc4)=C3C)CC2)cc1	x	x	-40	100
Cc1ccc(-c2cc(N3CCC(C(=O)NC4CCCCC4)CC3)ncn2)cc1	x	x	-28	102
CSCCSc1nnc(-c2cccc(S(=O)(=O)N3CCCCC3)c2)o1	96	94	-16	x
Nc1ncc(N=Nc2ccc(SC(F)F)cc2)s1	81	39	-23	117
Cc1cc(C(=O)O/N=C(\N)CSc2ncccc2C(F)(F)F)no1	93	89	-24	106

A portion taken from the entries so far, for reference:
structure	Sa growth 42C	Sa growth 42C second temp	HCMV UL50-53 inh	GIV Gai3 FP
CC1CCN(S(=O)(=O)c2ccc3c(c2)CCC(=O)N3CC(=O)N2CCOCC2)CC1	x	x	-16	105
Cc1ccc(S(=O)(=O)N(CC(O)Cn2c3ccccc3c3ccccc32)c2cccc(C(=O)N(C)C)c2)cc1 (stereo unspecified)	111	81	-23	105
CC1CCCC(NC(=O)COC(=O)c2ccc(C#N)cc2)C1C (stereo unspecified)	83	93	-5	x
O=C(Nc1ccccn1)c1cccc(C(=O)Nc2ccccn2)c1	109	94	-8	x

The list goes on.
structure	Sa growth 42C	Sa growth 42C second temp	HCMV UL50-53 inh	GIV Gai3 FP
CCSc1nnc2n(-c3cccc(C)c3)c(=O)c3c4c(sc3n12)CCCC4	118	96	-6	104
CN(c1ccccc1)S(=O)(=O)c1nnc(NC(=O)c2cccs2)s1	128	95	-18	103
CC1CCCCC1NC(=O)CSc1ccc(S(=O)(=O)N2CCCC2)cn1 (stereo unspecified)	106	100	-7	x
CCn1c2ccccc2c2cc(NC(=O)C(C)C)ccc21	109	91	x	99
Brc1cnc(N2CCOCC2)nc1	100	90	7	114
COc1cc(S(=O)(=O)N(Cc2cccnc2)Cc2ccco2)ccc1-n1cnnn1	101	82	-2	105
CCOC(=O)c1sc2nc(CN3CCCCC3)nc(NC3CC3)c2c1C	81	91	-39	x
CC(C)(C)OC(=O)N=Nc1c(O)n(Cc2ccccc2)c2ccccc12	117	90	-17	x
O=C1CCC(=O)N1NC(=O)C12CC3CC(CC(C3)C1)C2	96	86	-6	x
Cc1ccnc(SCC(N)=O)c1C#N	104	88	-5	x
CC1CCCN(S(=O)(=O)c2cc(C(=O)N3CCCc4ccccc43)n(C)c2)C1 (stereo unspecified)	x	x	-19	106
COc1ccc(C2CC(c3cccs3)=NN2C(=O)CCC(=O)O)cc1 (stereo unspecified)	x	x	-73	96
CCC(Sc1nc2ccccc2s1)C(=O)Nc1ccccc1C#N (stereo unspecified)	80	79	2	97
CCCCNC(=O)c1sc(-n2nc(C)cc2C)nc1C	x	x	-12	95
CCN1CCCC1CNC(=O)CSc1cc(=O)n(C)c2cc(Cl)ccc12 (stereo unspecified)	86	80	x	107
COc1ccc(C2=NN(C(=O)c3cc(OC)c(OC)c(OC)c3)C(c3cccc([N+](=O)[O-])c3)C2)cc1OC (stereo unspecified)	x	x	-15	106
O=C(CCc1ccc(S(=O)(=O)N2CCOCC2)cc1)NCc1ccncc1	99	99	-36	x
COCCNc1nc(-c2cccs2)cs1	82	77	-42	x
CC(=O)Nc1cccc(C(=O)O)c1	108	101	-8	97
CC(C)(C)NC(=O)N1CCC(C(=O)O)CC1	104&88	90&86	-28	107&101
Nc1cc(N)nc(SCCN2CCOCC2)n1	121	101	-23	102
C1CCC(OCCN2CCN(CCOC3CCCCC3)CC2)CC1	105	97	-7	108
CCN(CC)c1nc(NCC(=O)O)nc(NCC(=O)O)n1	88	79	-24&-17	98&92
O=C(NC1CCN(Cc2ccccc2)CC1)c1cc(-c2ccccc2)c(N2CCOCC2)s1	x	x	-5	101
CCCN1CCC(NC(=O)Nc2cc(C)ccc2C)CC1	99	104	-21	102
Cc1ccc(NC(=O)Cn2c(=O)c3cc(Cl)ccc3n3nncc23)cc1	98	90	-17&-24	103&101
COC(=O)c1c(NC(=O)CSc2nnc3ccc4ccccc4n23)sc2c1CCC(C)C2 (stereo unspecified)	x	x	-2	98
O=C(c1cc2ccccn2n1)N1CCCC1	112	87	-6	104
CC(C(=O)Nc1ccccc1O)N1C(=O)C2C3C=CC(C3)C2C1=O (stereo unspecified)	86	84	-14	108
Cc1ccc(-n2nc(C)c(C(C)(O)C(F)(F)F)c2N)cc1 (stereo unspecified)	101	80	-10	x

Additional compounds
structure	Sa growth 42C	Sa growth 42C second temp	HCMV UL50-53 inh	GIV Gai3 FP
CC(C)(C)C(=O)Nc1cccc(-c2ncon2)c1	90	62	-1	101
O=C1c2ccccc2C(=O)N1CN(Cc1ccccc1)CN1C(=O)c2ccccc2C1=O	100	87	-30	103
Cc1c(C(=O)OC2CCCCC2)[nH]c2c1C(=O)CC(c1ccccc1)C2 (stereo unspecified)	104	90	-5	106
COc1ccc(S(=O)(=O)N2CCN(c3ccccc3OC)CC2)cc1C	x	x	-9	105
COc1ccc(C(=O)Nc2cc(-c3nc4ccccc4s3)ccc2C)cc1	x	x	-24	99
COCCN1Cc2cccc(C(=O)N3CCN(C4CCCCC4)CC3)c2C1=O	94	100	x	103
O=C1NC(=S)N(c2cc(Cl)cc(Cl)c2)C(=O)/C1=C/c1ccc2c(c1)OCO2	x	x	-11	101
CCc1ccc(NC(=O)CCn2c(=O)oc3ccccc32)cc1	101	89	x	107
COc1ccc(C2=NN(C(=O)CCC(=O)O)C(c3ccc(C)cc3)C2)cc1 (stereo unspecified)	x	x	-29	103
Cc1ccc(-c2nnn(CC(=O)N(Cc3cccs3)C(C(=O)NCC3CCCO3)c3ccc(F)cc3)n2)o1 (stereo unspecified)	118	124	1	104
CSc1ncc(Cl)c(C(=O)N(Cc2ccc(C)cc2)C2CCS(=O)(=O)C2)n1 (stereo unspecified)	107	85	-17	101
O=C(c1cnc2ccccc2c1Nc1ccc(Cl)cc1)N1CCOCC1	x	x	-16	100
O=C(CSc1ccccc1)N1CC(OCc2ccc(Cl)cc2)C1	x	x	-21	98
COc1ccc(CCCc2nnc(SCC(=O)Nc3ccc(C)cc3)o2)cc1	108	91	-8	106
O=C(CN1CCc2ccccc2C1)c1ccc(OC(F)F)cc1	106	87	-9	x
COc1cccc(CNC(=O)C2CCC(CNS(=O)(=O)c3ccc4c(c3)CCCC(=O)N4)CC2)c1 (stereo unspecified)	110	96	x	106
CC(=O)c1ccc(NC(=O)c2cc(S(=O)(=O)N3CCCCCC3)cn2C)cc1	91	89	x	96
COc1nccn(-c2ccccc2)c1=O	76	88	-58	103
Nc1c(C(=O)c2ccccc2)oc2ccccc12	73	74	-84	102&113
CCOc1ccc(C(=O)CSc2nc3c(c(=O)n(C)c(=O)n3C)n2C(C)C)cc1	109	87	-29	100
O=C(Nc1nc2ccccc2s1)c1cnccc1C(F)(F)F	103	90	-7	107
COc1ccc(N2CCN(c3oc(-c4ccc(COc5cccc(C)c5)o4)nc3C#N)CC2)cc1	101	94	14	101
COc1ccccc1C1C(C#N)=C(SCC(=O)OCc2ccccc2)NC(=O)C1C#N (stereo unspecified)	x	x	-19	105
O=C(NCCOc1ccccc1)c1ccc(=O)[nH]c1	110	89	-10	x
CCOC(=O)CSc1nnc(CCCN2C(=O)c3cccc4cccc(c34)C2=O)n1-c1ccccc1	x	x	-59	105
Nc1c(C(=O)c2ccc(F)cc2)sc(Nc2ccccc2F)c1S(=O)(=O)c1ccc(Br)cc1	98	94	x	107
Cc1ccc(-n2ncc(C(=O)Nc3ccc4c(c3)OCO4)c2C2CCN(C(=O)OC(C)(C)C)CC2)c(C)c1	101	101	x	116
Cc1ccccc1Cn1c2ccccc2c2cnn(CC(=O)NCCc3ccccc3)c(=O)c21	88	92	8	109
O=C(CSCc1cc(=O)c2cc(F)ccc2[nH]1)Nc1ccccc1Cl	83	84	x	103
CCCCn1c(=N)n(CC(=O)OCC)c2ccccc21	89	85	-19	102

Carrying on.
structure	Sa growth 42C	Sa growth 42C second temp	HCMV UL50-53 inh	GIV Gai3 FP
Cc1ccc2c(c1)-c1c(ssc1=S)C(C)(C)N2C(=O)CSc1nncn1C	x	x	-113	105
CCc1cc(=O)oc2cc(OC3CCCCC3=O)ccc12 (stereo unspecified)	125	87	-14	x
Cc1ccc(NC(=O)c2cnc(SCC(=O)N3CCCc4ccccc43)n(C)c2=O)cc1	112	89	x	99
C#CCn1c(O)c(N=NC(=O)c2cc(OC)c(OC)c(OC)c2)c2ccccc21	114	89	-44	101
Cc1cc(C)nc(NS(=O)(=O)c2ccc(NC(=O)CSc3nccn3C)cc2)n1	x	x	-6	101
O=c1sc2c(n1-c1ccccc1)SCC1COc3ccccc3C21 (stereo unspecified)	100	86	x	106
O=C1c2ccccc2CN1Cc1ccccc1	x	x	-22	105
Oc1ccccc1CN1CCN(Cc2ccccc2O)C1c1ccco1	105	93	-39	x
CCn1c(C)cc(O)c(C(c2cccc(OC)c2)N2CCN(c3ccc(F)cc3)CC2)c1=O (stereo unspecified)	102	92	-23	103
Cc1ccc2c(c1)c1c(c(=O)n(-c3cccc(Cl)c3)c(=O)n1C)n2C	108	85	-9	109&102
O=C1CC2(CCCC2)C(=O)N1C1CCN(c2ncc(C(F)(F)F)cc2Cl)CC1	91	93	-14	102
O=C(Cn1nnc(-c2cccc(C(F)(F)F)c2)n1)NCc1ccc(Cl)cc1	97	104	20	x
Cc1nnc(SCc2ccco2)c2c1nnn2Cc1ccc(F)cc1	76	82	-18	99
O=C(c1ccccc1F)N1c2ccccc2Sc2ccccc21	106	98	1	x
COc1ccc(NC(=O)C2CCC(=O)N2S(=O)(=O)c2ccccc2)cc1OC (stereo unspecified)	x	x	-19	106
O=C(COc1ccccc1)N1CCC2(CC1)Nc1cc(F)ccc1-n1cccc12	x	x	-33	109
Cn1cccc1C(=S)NC(=O)Nc1ccccc1Cl	110	92	27	102
CCOC(=O)c1cc2sccc2n1CC(=O)OC	96	83	-8	99
COc1cc(-c2nc(N3CCCC(C)C3)c3ccccc3n2)cc(OC)c1OC (stereo unspecified)	x	x	14	99
Cc1ccc(-c2csc(/C(C#N)=C/c3ccccc3Cl)n2)cc1	100	89	-34	107
Cc1cc(C)n(-c2ccnc3cc(Cl)ccc23)n1	x	x	11	101

The order is random; about 0.85% have a hit in one of these screens.
